Cruzain inh Det – blocks cruzain activity in presence of Triton detergent | purified cruzain, Z-FR-AMC fluorescence, 0.01% Triton | Potency, µM, without a hit: max response, negative = inhibition, most hits filed as inhibitors | 200,000 compounds, 0.43% hits | AID 1478;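 also: plate controls were neutral wells for no effect and buffer without enzyme for full effect; nearly all actives have a fitted effect of over 40% in size; top concentration of the series not given in the record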
Target sequence (P25779 123-467 limits assumed): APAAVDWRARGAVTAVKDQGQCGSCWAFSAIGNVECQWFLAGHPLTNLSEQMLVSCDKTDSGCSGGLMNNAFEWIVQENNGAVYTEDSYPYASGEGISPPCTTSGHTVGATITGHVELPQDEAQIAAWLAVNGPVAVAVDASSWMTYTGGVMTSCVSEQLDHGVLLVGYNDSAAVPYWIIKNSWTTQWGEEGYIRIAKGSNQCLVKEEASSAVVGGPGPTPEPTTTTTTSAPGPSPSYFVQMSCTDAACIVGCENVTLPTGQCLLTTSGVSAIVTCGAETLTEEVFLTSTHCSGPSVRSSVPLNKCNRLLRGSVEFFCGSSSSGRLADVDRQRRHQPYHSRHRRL
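Compounds were screened in titration against cruzain (1.5 nM) with 0.01% Triton X-100 to counter colloidal aggregation. Activity was the AMC fluorescence increase over 60 s after adding 2 uM Z-FR-AMC at pH 5.5.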
NS1 inh – influenza NS1 inhibition; S. cerevisiae slowed by influenza A NS1, growth recovery by OD600; Potency, µM (doses to about 46.1 µM), for inactives: at the top dose activity, positive = more growth; 270,000 compounds, 0.4% hits; AID 2326; active means well fitted rising curve with a large enough effect; inconclusive means small, poorly fitted or top-dose-only effect; inactive means no such curve, though single readings can be large or run the other way; also: nearly all actives have a fitted effect of over 50% in size
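S. cerevisiae expressing influenza A NS1, grown in glucose, washed, then diluted 1:100 into pH 6.0 -URA galactose medium with 23 nl compound. Growth recovery read as OD600; NS1-free strain serves as control.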
MARV entry inh – blocks Marburg virus binding to or entry into cells; Marburg virus pseudotyped entry inhibition, cell reporter; control for the full effect not named in the record; about a third of the inactives were read at about 46 µM; Potency, µM (doses to about 37.8 µM), for inactives: at the highest dose activity change, negative = inhibition, most hits filed as inhibitors; 300,000 compounds, 1.8% hits; AID 540276; active = well fitted inhibition curve with a large enough effect; inconclusive = small, poorly fitted or top-dose-only effect, or effect the other way; inactive = flat fitted curve, though single readings scatter; tested in HEK293 cells; about a fifth of its hits are not listed in these tables; also: % is scaled to controls: 0 for no effect and ±100 for the full control effect; luciferase read-out
RE007 growth inh – less growth of the S. pombe RE007 Vpr strain; Potency, µM (titrated, usually from 92.2 µM), for the others: at the top dose activity change, negative = less growth; S. pombe RE007 Vpr strain, BacTiter-Glo ATP luminescence, 24 h; control for the full effect not named in the record; AID 651644; 360,000 compounds, 0.21% hits; active = well fitted falling curve with a large enough effect; inconclusive = small, poorly fitted or top-dose-only effect; inactive = no such curve, though single readings can be large or run the other way;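 also: % is scaled to controls: 0 for no effect and ±100 for the full control effect; nearly all actives have a fitted effect of over 50% in size; the assay follows cell death caused by Vpr and the record does not say whether a fall means rescue or toxicity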
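Fission yeast RE007 carrying one integrated HIV-1 vpr copy, seeded at OD 0.01 in PMG+AL medium with 23 nL pinned compound. Grown 24 h at 30 degrees; viability read by BacTiter-Glo luminescence after 5 min.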
SARS PLP yeast – inhibitors of SARS-CoV papain-like protease in yeast; S. cerevisiae expressing SARS-CoV PLpro, growth rescue; control for the full effect not named in the record; Potency, µM (highest dose often 32.9 µM), inactives show at the top dose activity, positive = growth rescue; 330,000 compounds, 0.19% hits; AID 485353; active means well fitted rising curve with a large enough effect; inconclusive means small, poorly fitted or top-dose-only effect; inactive means no such curve, though single readings can be large or run the other way; also: 0% is about no effect; nearly all actives have a fitted effect of over 55% in size; growth read by luminescence after 48 h
StopGo reporter – FMDV 2A StopGo reporter, luciferase signal; 410,000 compounds, 1.2% hits; Potency, µM (titrated, usually from 57.9 µM), inactives show top-dose signal change, negative = less light; human cells with a luciferase reporter of 2A StopGo recoding; control for the full effect not named in the record; active = well fitted falling curve with a large enough effect; inconclusive = small, poorly fitted or top-dose-only effect; inactive = no such curve, though single readings can be large or run the other way; tested in HEK293T cells; also: % is scaled to controls: 0 for no effect and ±100 for the full control effect; nearly all actives have a fitted effect of over 45% in size; luciferase light after 4 h
Cruzain inh noDet – cruzain (T. cruzi) inhibition without detergent; purified cruzain, Z-FR-AMC fluorescence, no detergent; Potency, µM, inactives show max response, negative = inhibition, hits mostly inhibitors; AID 1476; 200,000 compounds, 2.3% hits;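 also: plate controls were enzyme without inhibitor for no effect and buffer without enzyme for full effect; nearly all actives have a fitted effect of over 40% in size; top concentration of the series not given in the record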
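Purified cruzain at 1.5 nM, pre-incubated 15 min with compound at room temperature in 100 mM sodium acetate pH 5.5, 5 mM DTT, 0.00005% Triton X-100. Reaction started with 2 uM Z-FR-AMC; AMC fluorescence increase over 60 s gives rate.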
LASV entry inh – Lassa virus entry inhibition | AID 540256 | Potency, µM (top dose mostly 37.9 µM), inactives show at the highest dose activity change, negative = inhibition, usual class: inhibitors | Lassa virus pseudotype entry inhibition, cell reporter; control for the full effect not named in the record | 300,000 compounds, 1.2% hits; active means well fitted inhibition curve with a large enough effect; inconclusive means small, poorly fitted or top-dose-only effect, or effect the other way; inactive means flat fitted curve, though single readings scatter; tested in HEK293 cells; also: % is scaled to controls: 0 for no effect and ±100 for the full control effect; nearly all actives have a fitted effect of over 50% in size; luciferase read-out
* hit, by the source's call; ? = inconclusive; . = no result given; [ ] = another dose, or the depositor's remark. Unless noted, calls follow the shape of the dose curve; as a rule, active = well fitted curve in the direction sought with a large enough effect; inconclusive = small, poorly fitted or top-dose-only effect, or another doubt; inactive = no such curve, though single readings can be large; an effect the other way counts as inactive or inconclusive. Potency is read from the fitted curve at half-maximal effect.

structure	Cruzain inh Det	NS1 inh	MARV entry inh	RE007 growth inh	SARS PLP yeast	StopGo reporter	Cruzain inh noDet	LASV entry inh
CCc1ccc(NC(=O)C(C)n2nnc3sc(-c4ccccc4)cc3c2=O)cc1 (configuration not stated)	-3.6%	.	-13%[46.1 µM]	.	.	-11%	-6%	0%[46.1 µM]
Cc1cccc(N2CCN(C(c3ccncc3)c3nnnn3C(C)(C)C)CC2)c1C (configuration not stated)	.	.	-3%[46.1 µM]	-26%	0%	-11%	.	?
CCOC(=O)N1CCC(N2C(=O)c3ccccc3C2Nc2ccccc2)CC1 (configuration not stated)	-1.7%	6%	.	-5%	-7%	-17%	5%	.
CN(Cc1cccnc1)C(=O)Cc1ccc(NS(=O)(=O)c2cccc(C(F)(F)F)c2)cc1	.	8%	?	-23%	3%	14%	.	-24%[46.1 µM]
O=C(CSc1ncccn1)N/N=C/c1ccccc1[N+](=O)[O-]	.	.	-4%[46.1 µM]	3%	1%	16%	.	1%
COc1ccccc1-c1cn(S(=O)(=O)c2ccc(C)cc2)nc1N	-3.4%	-21%	13%[46.1 µM]	-10%	2%	?	10µM*	?
CCC(=O)Nc1nonc1-c1nc2ccccc2n1Cc1ccccc1	-8.6%	-42%	-12%	3%	-3%	-14%	1%	-9%
CCCn1nc(C(=O)OCC(=O)Nc2ccc(C(N)=O)cc2)c2ccccc2c1=O	.	.	-3%	-24%	0%	-11%	.	9%
Fc1ccccc1OCCSc1nnnn1-c1ccccc1	-5.8%	-62%	?	-18%	-14%	14%	-16%	?
O=C(CCc1nc2ccccc2c(=O)[nH]1)OCc1cccc(C(F)(F)F)c1	-1.2%	7%	22%	21%	22%	-19%	21%	-6%
C(=NN=C1c2ccccc2-c2ccccc21)c1c[nH]c2ccccc12	.	.	?	?	.	24%	.	?
O=C(CCC1N=C2c3ccccc3N=C(SCc3ccccc3Cl)N2C1=O)NCc1ccco1 (configuration not stated)	-1.6%	?	?	-3%	2%	5%	23%	-27%
Cn1c(=O)oc2cc(NC(=O)CCl)ccc21	.	-45%	.	13%	17%	?	.	.
Cc1cc(C(=O)N2CCCCCC2)cs1	3.3%	3%	6%	-6%	-2%	4%	0%	-17%
CN(C)Cc1cccc(-c2ccccc2)c1O	.	.	?	-2%	.	0%	.	16%[46.1 µM]
Cc1nc2sc(C(=O)OC(C)C)c(N)c2c(C)c1C	.	.	16%[46.1 µM]	-13%	-3%	60%[activator]	.	.
Cc1nc(NC(=O)COC(=O)CNC(=O)c2ccco2)c(Cl)cc1Cl	.	.	13%	?	1%	0%	.	-13%
COc1ccc(NC(=O)C2CC2)cc1OC1CCCC1	.	-8%	-11%	-14%	-3%	8%	.	?
Cc1ccc(C2=N/C(=C\N(C)C)C(=O)O2)cc1	-12%	-8%	?	-5%	-2%	61%[activator]	-3%	0%
O=C(c1cccs1)N1CCN(C/C=C/c2ccccc2)CC1	3.7%	-1%	-1%	0%	0%	-18%	-4%	22%
Cc1ccc(S(=O)(=O)N2CCOC2CNC(=O)C(=O)NCc2ccco2)cc1 (configuration not stated)	1.4%	-14%	32%	-9%	-4%	-27%	-8%	-5%
COc1ccc(C(C)(C)C)cc1NC(=O)Nc1ccc2c(c1)OCO2	-12%	-111%	?	7%	-88%	-16%	2%	-22%
O=C(Nc1ccccc1NC(=O)NC1CCCCC1)NC1CCCCC1	1.6%	-5%	4.6µM*	-13%	0%	54%[activator]	-14%	13µM*
CCOC(=O)c1c(CN2CCCCC2)n(C)c2cc(Br)c(O)c(CN(C)C)c12	-0.4%	-4%	.	-2%	-7%	0%	-17%	.
O=C(O)CC(CNS(=O)(=O)c1cccc2nsnc12)c1ccccc1 (configuration not stated)	.	.	6%[46.1 µM]	-12%	0%	3%	.	6%
Cc1nc2c(-c3ccc(F)cc3)c(C)nn2c(C)c1CCC(=O)NCc1ccc(F)cc1	2.2%	.	-3%[46.1 µM]	.	.	-5%	8%	6%[46.1 µM]
COc1ccc(NC(=S)NC2CCS(=O)(=O)C2)cc1 (configuration not stated)	-0.9%	14%	10%	-11%	-17%	-9%	7%	0%
Cc1ccc(-c2c3c([nH]c(=S)c2C#N)CCCC3)o1	?	?	-2%	46%	-2%	-18%	?	2%
O=C(N/N=C/c1cc(O)ccc1[N+](=O)[O-])c1ccc2c(c1)OCCO2	.	5%	?	-6%	9%	?	.	5µM*
COc1ccc(N2CCN(C(CNC(=O)Oc3ccccc3)c3cccnc3)CC2)cc1 (configuration not stated)	-2.5%	-11%	-22%	2%	-2%	.	-5%	-21%
CN(C)c1ccc(/C=N/NC(=O)CCC(=O)NCc2ccccc2)cc1	-7.4%	-41%	2%	2%	-3%	6%	-28%	-3%
O=C1CCCC(=O)N1c1ccc(NCCOCCO)c([N+](=O)[O-])c1	.	.	?	96%	-1%	-11%	.	9%
CCCCOC(=O)c1ccc(NC(=O)Cn2nnc3sc4c(c3c2=O)CCCC4)cc1	-2.2%	.	?	.	.	-23%	-20%	16%[46.1 µM]
COc1ccc(S(=O)(=O)N2CCCC(C(=O)NC3CCCCC3)C2)cc1 (configuration not stated)	6.1%	-6%	-9%[46.1 µM]	2%	0%	-23%	8%	9%
O=C(NCCc1ccccc1)c1ccc2nc(N3CCOCC3)sc2c1	.	-7%	.	10%	-2%	4%	.	.
CN(C)C=Nc1nonc1-c1ccc(Cl)cc1	.	5%	.	-10%	1%	-9%	.	.
CC(=O)c1cccc(NS(=O)(=O)c2cc(OCC(N)=O)c(C)cc2Cl)c1	1.5%	-3%	1%	-3%	0%	55%[activator]	8%	6%
O=C(CN(Cc1ccc(F)cc1)C(=O)Cn1nnc2ccccc21)NCC1CCCO1 (configuration not stated)	0.1%	-3%	3%	7%	-1%	.	5%	-26%
COCCN(C(=O)c1cc(-c2ccncc2)nc2ccccc12)c1c(N)n(CC(C)C)c(=O)[nH]c1=O	.	.	2%	-2%	0%	2%	.	16%[46.1 µM]
COc1ccc(CCNC(=O)C2CC(c3ccccc3[N+](=O)[O-])=NO2)cc1 (configuration not stated)	-0.7%	-10%	.	6%	3%	68%[activator]	0%	.
Oc1[nH]c(N=C2N=c3ccccc3=N2)c2ccccc12	.	-41%	?	-28%	1%	10%	.	?
Cc1ccc(S(=O)(=O)/N=C2\C(=O)c3ccccc3C([O-])=C2n2cc[n+](CCC(C)C)c2)cc1	0.9%	6%	?	-10%	-2%	.	-6%	-16%
Cc1cccc(OCc2nnc(SCC(=O)Nc3ccc(C)cc3C)o2)c1	-1.8%	.	-4%[46.1 µM]	.	.	1%	6%	-1%[46.1 µM]
CN(C)S(=O)(=O)n1cc(/C=C(\NC(=O)c2ccccc2)C(=O)NCCCN2CCOCC2)c2ccccc21	.	5%	.	-5%	11%	-10%	.	.
c1ccc(-c2nc(-c3cccnc3)cs2)cc1	.	-41%	.	?	-5%	54%[activator]	.	.
CCc1ccccc1S(=O)(=O)Cc1ccc(C(=O)NCc2ccc3c(c2)OCO3)o1	-4.1%	-7%	1%	13%	5%	-6%	-3%	.
COC(=O)C1CCN(C(=O)COC(=O)c2oc3ccccc3c2C)CC1	.	.	1%[46.1 µM]	-14%	-12%	-15%	.	-3%
CN(CC(=O)Nc1cccc(F)c1)CC(=O)N1CCc2ccccc21	.	.	15%	-11%	-6%	5%	.	6%
Cc1cc(C)c(S(=O)(=O)Nc2cccc(/C=C/C(=O)O)c2)c(C)c1	-3.9%	30%	7%	2%	1%	18%	-1%	8%
COc1cccc(CN2CC(C(=O)NCCOc3cccnc3)CCC2=O)c1 (configuration not stated)	.	3%	.	-8%	-5%	-10%	.	.
Oc1ccccc1CNCc1ccccc1	.	.	-20%[46.1 µM]	7%	0%	1%	.	?
Cn1c(=O)[nH]c(=O)c2[nH]c(CO)nc21	.	.	0%	5%	.	-2%	.	-2%[46.1 µM]
Cc1cc2cc(CN(Cc3nnnn3C3CCCCC3)CC3CCCO3)c(=O)[nH]c2cc1C (configuration not stated)	-11%	-13%	?	7%	3%	.	?	?
Cc1ccccc1CSCC(=O)Nc1ccccc1F	.	-20%	?	4%	4%	31%[activator]	.	-15%[46.1 µM]
Cc1cc(C)c2c(=O)[nH]c(SCC(=O)N3CCOCC3)nc2n1	.	6%	-20%[46.1 µM]	-8%	0%	-9%	.	-2%
CCc1ccccc1NC(=O)NCc1ccccn1	.	7%	.	-4%	-5%	-14%	.	.
CC1(NC(=O)c2cccc(S(=O)(=O)N3CCCc4ccccc43)c2)CCS(=O)(=O)C1 (configuration not stated)	.	.	3%	1%	2%	2%	.	-15%
CN(C)C(CNC(=O)c1ccc(Br)cc1)c1ccco1 (configuration not stated)	.	8%	-16%[46.1 µM]	1%	0%	8%	.	10%
C/C(CC(=O)c1ccccc1)=N\NC(=O)CC#N	.	-1%	13%[46.1 µM]	-4%	-1%	18%	.	17%[46.1 µM]
CCN(CC)P(=O)(/C(Cl)=C\Nc1c(C)n(C)n(-c2ccccc2)c1=O)N(CC)CC	6.2%	0%	-3%	5%	12%	1%	19%	13%
O=C(Nc1ccc(F)cc1F)NC1CCCCCCC1	.	-17%	6%[46.1 µM]	2%	0%	19%	.	?
